Screening data: PubChem BioAssay, several laboratories
Ecoli growth – E. coli growth inhibition, primary screen, OD600; 0.21% of 330,000 active; OD600 absorbance (concentration not given with the values); Escherichia coli growth, 23 h; active compounds read low;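 active = OD600 absorbance below the run mean of sample wells minus 3.6 SD, in any replicate, cut at about 0.56 in these data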;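 note: stock transfer was 300 nL into about 60 µL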
ALR inh – inhibitors of human ALR sulfhydryl oxidase, primary screen, biochemical, H2O2 detection, HRP-luminol luminescence, single point | FAD-linked sulfhydryl oxidase ALR (Homo sapiens), P55789 | purified ALR, DTT oxidation | inhibition, % (concentration not given with the values) | 3.8% of 290,000 active;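 active = mean and each replicate at 75% or more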;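 note: stock transfer was 7.5 nL into about 7.5 µL; 0% = neutral wells and 100% = wells with inactivated enzyme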
Vif TR-FRET – inhibitors of Vif binding to APOBEC3G peptide, primary screen, biochemical, TR-FRET, GST-Vif 1-94, biotin-A3G peptide, dose response retest (AID 1117319); Virion infectivity factor (Human immunodeficiency virus type 1 group M subtype B (isolate …; TR-FRET GST-Vif / biotin-A3G peptide binding; higher % means a stronger effect; test concentration not given here; strong numbers were not always called active; one-dose inhibition, %; IC50 in µM for titrated hits; 0.57% of 260,000 active;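 active = above the screen mean plus three standard deviations and confirmed in dose response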;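 note: Vif residues 1-94 fused to GST binding biotinylated APOBEC3G peptide 110-148; 0% = full assay without inhibitor and 100% = GST in place of GST-Vif; retest series ran down from 100 µM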
MLL AF4-AF9 inh – inhibitors of AF4 peptide binding to AF9, primary screen, biochemical, AlphaScreen, biotin-AF4 peptide, FLAG-AF9, single point. inhibition, % at 10 µM. 0.47% of 350,000 active;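 active = every replicate reaching a set inhibition limit, whatever the replicate mean, cut at about 25% in these data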;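 note: 0% = plate neutral control median and 100% = total signal loss; the record names both 10 and 1 µM as test concentration; the first replicate is given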
Target sequence (P42568 whole entry, looked up): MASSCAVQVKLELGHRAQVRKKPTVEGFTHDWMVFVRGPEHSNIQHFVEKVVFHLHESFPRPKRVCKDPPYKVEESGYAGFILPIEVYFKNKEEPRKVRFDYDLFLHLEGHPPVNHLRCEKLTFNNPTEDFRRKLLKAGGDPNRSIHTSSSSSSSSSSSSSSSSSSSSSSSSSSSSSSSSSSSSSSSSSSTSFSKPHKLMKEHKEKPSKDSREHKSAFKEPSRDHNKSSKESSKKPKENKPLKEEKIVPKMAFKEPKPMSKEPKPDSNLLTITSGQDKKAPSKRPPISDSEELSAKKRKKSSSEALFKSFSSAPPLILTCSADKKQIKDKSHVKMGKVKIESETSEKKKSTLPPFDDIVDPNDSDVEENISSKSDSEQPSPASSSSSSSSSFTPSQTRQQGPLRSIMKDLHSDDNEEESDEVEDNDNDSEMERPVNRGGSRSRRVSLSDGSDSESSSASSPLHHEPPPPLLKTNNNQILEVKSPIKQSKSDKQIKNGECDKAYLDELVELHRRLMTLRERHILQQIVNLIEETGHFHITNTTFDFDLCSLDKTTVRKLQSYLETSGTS
HNF4A DNA FP – change in binding of human HNF4A to DNA, primary screen, biochemical, fluorescence polarization, FITC-DNA. Hepatocyte nuclear factor 4-alpha (Homo sapiens), P41235. 1 h. activity change, % at 10 µM. 0.3% of 360,000 active. AID 1224865, 2016; in the data active = activity change above about 30%, passing the limit was not always enough;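 note: controls were the assay level and a saturating level of protein; the project sought stronger binding though the title names inhibitors; some compounds called inactive have numbers as strong as hits; positive values seem to mean higher polarization but the record does not say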
Target sequence (P41235 whole entry, looked up): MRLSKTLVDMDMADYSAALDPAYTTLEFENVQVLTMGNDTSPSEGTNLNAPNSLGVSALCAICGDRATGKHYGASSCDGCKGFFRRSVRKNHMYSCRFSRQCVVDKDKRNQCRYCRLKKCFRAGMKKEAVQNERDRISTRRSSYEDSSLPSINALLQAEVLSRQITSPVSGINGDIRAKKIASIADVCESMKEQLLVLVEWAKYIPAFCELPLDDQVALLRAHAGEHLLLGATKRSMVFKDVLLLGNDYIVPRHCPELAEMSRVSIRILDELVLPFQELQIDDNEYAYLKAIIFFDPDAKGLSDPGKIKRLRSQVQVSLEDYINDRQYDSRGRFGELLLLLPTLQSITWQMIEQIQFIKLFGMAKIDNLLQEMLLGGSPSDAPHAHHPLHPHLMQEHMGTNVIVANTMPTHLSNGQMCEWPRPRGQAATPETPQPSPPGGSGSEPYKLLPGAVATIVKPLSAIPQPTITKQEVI
FGF22 binding – binders of human FGF22 protein, primary screen, FGF22 synaptogenesis inhibitor project, biophysical, thermal shift, single point. Fibroblast growth factor 22 (Homo sapiens), Q9HCT0. recombinant FGF22 thermal shift, SYPRO orange fluorescence; percent of sucrose octasulfate shift, DMSO zero. calls only at 9.99 µM. AID 651658, 2012. 1.5% of 340,000 active;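 active = melting point raised past a set limit in the mean and every replicate; three in four hits are not shown here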
Ecoli rRNA inh – reduced GFP signal of wild-type E. coli, primary screen, bacterial rRNA inhibitor project, GFP/RFP fluorescence, OD600, single point. AID 720706, 2013. E. coli WT GFP vs humanized-ribosome RFP mutants, 24 h; active compounds read low; DMSO median 0, no signal -100. GFP signal change (wild-type ribosome), % (no concentration beside the values). 1.6% of 350,000 active;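 active = significant combined selectivity score with lowered wild-type GFP, culture density cut under 30%, mutant RFP and density less affected; inactive = any of these conditions unmet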; note: one replicate is shown; some compounds called inactive have numbers as strong as hits
Ecoli rRNA inh OD600 – recorded beside Ecoli rRNA inh, whose call it bears; OD600 change, %; measured here: OD600 growth;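 optical density of the mix in the first replicate; 0 = DMSO median and -100 = no signal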
Ecoli rRNA inh RFP – recorded beside Ecoli rRNA inh, whose call it bears; RFP signal change, %; measured here: RFP humanized mutant strains;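 first replicate; 0 = DMSO median and -100 = no signal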
Active calls of the source: *; i = inactive; . = no result given; & = joins results of further samples. These rows are one share of the data; the hit share may differ from the screen's.

Start of the listing, in advance, 4 compounds:
SMILES	Ecoli growth	ALR inh	Vif TR-FRET	MLL AF4-AF9 inh	HNF4A DNA FP	FGF22 binding	Ecoli rRNA inh	Ecoli rRNA inh OD600	Ecoli rRNA inh RFP
CCN(CC)S(=O)(=O)c1ccc(N2CCOCC2)c(NC(=O)c2sccc2C)c1	0.69	.	4%	2.9	3.6	.	-4	-19	4.2
CCOC(=O)CCNC(=O)N1CCCC(N2CCN(c3ccc(OC)cc3)CC2)C1 (centres undefined)	0.63	58	.	3.8	-2.4	i	15	13	1.0
CC(=O)NCC1CCN(C(=O)C2CCC(=O)N(CCc3cccc(F)c3)C2)CC1 (centres undefined)	0.73	-1	.	0.0	-3.0	i	17	14	1.2
O=C(Nc1ccccc1N1CCOCC1)c1cc2ccccc2o1	0.68	66	.	1.1	2.6	i	8	7	0.3

Results (from the top)
SMILES	Ecoli growth	ALR inh	Vif TR-FRET	MLL AF4-AF9 inh	HNF4A DNA FP	FGF22 binding	Ecoli rRNA inh	Ecoli rRNA inh OD600	Ecoli rRNA inh RFP
CCN(CC)S(=O)(=O)c1ccc(N2CCOCC2)c(NC(=O)c2sccc2C)c1	0.69	.	4%	2.9	3.6	.	-4	-19	4.2
CCOC(=O)CCNC(=O)N1CCCC(N2CCN(c3ccc(OC)cc3)CC2)C1 (centres undefined)	0.63	58	.	3.8	-2.4	i	15	13	1.0
CC(=O)NCC1CCN(C(=O)C2CCC(=O)N(CCc3cccc(F)c3)C2)CC1 (centres undefined)	0.73	-1	.	0.0	-3.0	i	17	14	1.2
O=C(Nc1ccccc1N1CCOCC1)c1cc2ccccc2o1	0.68	66	.	1.1	2.6	i	8	7	0.3
C=CCN(C(=O)C1CSC2(C)CCC(=O)N12)c1nc(-c2ccccc2)cs1 (centres undefined)	0.72	.	-2%	-1.9	1.3	i	-15	-24	19
CC(C)COCC(O)CCC(=O)NNC(=S)Nc1ccccc1 (centres undefined)	0.67	93*	0%	-3.9	1.5	i	5	13	-1.6
Cc1ccc(N(C)C(=O)C2CCCN2S(=O)(=O)c2cccc3nsnc23)cc1 (centres undefined)	0.64	-1	6%	0.1	1.0	i	8	-2	-2.7
Cc1ccc(S(=O)(=O)Nc2cc(C(C(=O)OC(C)C)C(=O)C(F)(F)F)c(O)c3ccccc23)c(C)c1 (centres undefined)	0.63	3	19%	4.6	1.9	i	16	-3	8.3
COC(=O)c1cc(OC)c(OC)cc1NC(=O)c1ccccc1	0.79	.	-7%	.	2.4	.	.	.	.
CC(=O)Nc1ccc(/C(C)=N/NC(=O)c2ccc(F)cc2)cc1	.	-3	5%	.	-0.8	.	.	.	.
COc1ccc2c3c([nH]c2c1)[C@H](CO)N(C(=O)c1ccc(F)cc1)CC31CCN(C(=O)Nc2ccc(F)cc2)CC1	.	.	.	0.2	.	i	-3	-6	0.0
O=C(N=C1SC2CS(=O)(=O)CC2N1c1ccc(Cl)cc1)C1CCCO1 (centres undefined)	0.62	3	.	-2.8	-3.1	i	3	6	-1.7
O=C1NC[C@H](CCCCN2C[C@H](Cc3ccc(O)cc3)N(CC3CCCCC3)C(=O)C2=O)N(CCc2ccccc2)C1=O	.	.	.	1.9	3.8	i	-6	-6	2.3
CCCC(C(=O)NCCC(C)C)N(Cc1ccc(OC)cc1)C(=O)c1snc(C(N)=O)c1N (centres undefined)	0.67	-12	.	-2.2	0.3	i	2	-13	9.9
COc1ccccc1N=c1oc2cc(O)ccc2cc1C(=O)NCC1CCCO1 (centres undefined)	0.69	92*	-2%	.	13	.	.	.	.
CN(C)CCCNCCCNC(=O)c1ccco1	0.7	-7	-8%&13%	1.9	2.9&2.3	i	9	12	-1.1
Cc1cc(Cl)ccc1OC(C)C(=O)OCC(=O)c1ccc[nH]1 (centres undefined)	0.72	1	.	-1.1	0.3	i	1	-5	-1.4
C[C@@H]1CN([C@@H](C)CO)C(=O)c2cc(NS(C)(=O)=O)ccc2O[C@@H](C)CCCCO[C@H]1CN(C)Cc1ccc(C(=O)O)cc1	.	.	.	-0.5	.	i	3	7	0.6
COC(=O)Cc1csc(Nc2ccc(F)c(Cl)c2)n1	0.68	15	-3%	3.8	3.4	i	-27	-25	-5.6
Cc1ccc(S(=O)(=O)N2[C@@H](c3ccc(Br)cc3)C(C(=O)O)=CC[C@H]2c2cccc(Cl)c2)cc1	0.65	.	5%	1.3	-2.9	i	-26	-25	-5.9
O=C(Nc1ccc(N2CCN(C(=O)c3ccc(Cl)cc3)CC2)cc1)c1cccs1	0.73	6	.	-1.2	2.7	i	7	10	-0.2
C[C@H]1CN([C@@H](C)CO)C(=O)c2cc(-c3ccc(F)cc3)cnc2O[C@@H]1CN(C)S(C)(=O)=O	.	.	.	-1.5	.	i	0	5	1.2
COc1cc(/C=C/C(=O)OC(C)C(=O)NC2CCCCC2C)cc(Cl)c1OC (centres undefined)	0.66	-7	-1%	6.3	-0.8	i	6	7	-1.7
C[C@@H]1CN([C@@H](C)CO)C(=O)Cc2cc(NC(=O)Cc3cn(C)c4ccccc34)ccc2O[C@@H]1CN(C)Cc1ccc2c(c1)OCO2	.	.	.	2.3	.	i	-1	-2	4.7
CC(C)[C@H](NC(=O)c1ccco1)C(=O)OCC(=O)N(C)c1ccccc1	0.69	-3	6%	-1.0	-3.9	i	2	5	3.2

Next section.
SMILES	Ecoli growth	ALR inh	Vif TR-FRET	MLL AF4-AF9 inh	HNF4A DNA FP	FGF22 binding	Ecoli rRNA inh	Ecoli rRNA inh OD600	Ecoli rRNA inh RFP
COc1ccc(Br)cc1/C=C(\C(=O)O)c1ccc(S(=O)(=O)N2CCCCC2)s1	0.7	.	.	-2.6	-2.8	i	-39	-57	-12
CCOc1ccc(Oc2ccc(NS(=O)(=O)c3ccc(CCC(=O)O)cc3)cc2)cc1	.	.	.	0.2	1.8	i	.	.	.
O=C(CN1C2=NCCN2c2ccccc21)c1cccs1	0.65	17	-9%	.	2.0	.	.	.	.
OCC#CCSc1nnc(-c2ccccc2Br)o1	0.7	5	-1%	.	-1.1	.	.	.	.
C[C@H]1CN([C@@H](C)CO)C(=O)CCCn2cc(nn2)CO[C@H]1CN(C)S(=O)(=O)c1ccc(-c2ccccc2)cc1	.	.	.	3.0	.	i	-4	-4	4.9
CCN1CCN(S(=O)(=O)c2cccs2)CC1	0.69	0	77%	-66	-0.1	i	6	1	1.0
C[C@@H]1CN([C@H](C)CO)C(=O)c2cc(-c3cccc(C#N)c3)cnc2O[C@@H]1CN(C)Cc1ccccc1	.	.	.	-0.9	.	i	1	-2	0.4
COC(=O)c1cccc(Cn2c(Cl)c(/C=N/NC(=O)c3ccco3)sc2=O)c1	.	15	.	2.0	8.3	i	1	2	-3.6
COc1ccccc1-c1ccc2n(c1=O)C[C@H]1[C@H](CO)[C@@H](C(=O)NC3CCC3)N(C(=O)C3CCC3)[C@@H]21	.	.	.	-0.7	.	i	3	4	0.4
c1ccc(-c2nn(-c3ccccc3)[n+](-c3ccccc3)n2)cc1	.	.	2%	3.8	3.6	.	-34	75	-19
CC(=O)Nc1ccc(C(=O)OCCC(C)C)cc1	0.69	7	21%	.	-4.3	.	.	.	.
O=C(NCC1(c2ccccc2)CCCC1)c1ccccc1Br	0.7	-2	.	-0.4	4.2	i	.	.	.
Cc1nn(C)cc1NC(=O)C[C@@H]1CC[C@H]2[C@H](COc3ccc(NC(=O)NC(C)C)cc3C(=O)N2C)O1	.	.	.	-2.0	.	i	0	-3	-0.5
COC(=O)c1ccc(COc2ccc(-c3nnn(CC(=O)NC(C)(C)C)n3)cc2)cc1	0.73	-3	-8%	.	-0.7	.	.	.	.
O=C(Nc1ccccc1Cl)Nn1cnnc1	0.67	-12	.	2.0	-2.3	i	16	15	0.3
O=C(N[C@H]1CC[C@H](CCn2cc(C3(O)CCCC3)nn2)O[C@H]1CO)c1ccccc1F	.	.	.	0.2	.	i	0	-9	0.8
COc1cccc(N/C(SCc2ccccc2Cl)=C(/C#N)C(=O)NCc2cccs2)c1	0.73	-8	.	-8.3	-0.8	i	6	-3	-2.5
CCn1ncc(NC(=S)Nc2ccc(OC)c(OC)c2)c1C(N)=O	0.7	27	5%	-4.8	2.8	i	8	3	6.5
C[C@@H]1CN([C@H](C)CO)C(=O)c2cc(C#Cc3cccc(F)c3)cnc2O[C@H]1CN(C)CC1CCCC1	.	.	.	7.7	.	i	-22	-24	-0.9
COc1ccc(CCC(=O)OCC(=O)c2cccc(OC)c2)cc1	0.71	-34	0%	-2.0	2.8	i	4	4	5.0
O=C(O)c1ccc(NCc2nc3ccccc3n2CCOc2ccccc2Cl)cc1	0.68	1	2%	-0.5	-1.7	i	-30	-46	-6.5
Cc1ccccc1Nc1nc(N)nc(COC(=O)c2cccc(S(=O)(=O)N(C)c3ccccc3)c2)n1	0.72	-6	.	.	-0.1	.	.	.	.
CC(=O)c1cc2c(cc1NC(=O)Cn1cnc3ccccc3c1=O)OCO2	0.7	-1	.	-2.2	-0.4	i	20	9	4.4
Cc1ccc2c(c1)c1nnc(SCC(=O)Nc3ccc(N(C)C)cc3)nc1n2CC(=O)O	0.69	100*	.	5.6	8.6	i	9	14	-0.7
COC(=O)c1cn(C(=O)c2ccc3c(c2)OCO3)c2ccccc12	.	.	-3%	-4.1	-1.2	i	8	8	-1.4

Going on with the list:
SMILES	Ecoli growth	ALR inh	Vif TR-FRET	MLL AF4-AF9 inh	HNF4A DNA FP	FGF22 binding	Ecoli rRNA inh	Ecoli rRNA inh OD600	Ecoli rRNA inh RFP
CCNC(=S)N/N=C/c1cc(C)n(-c2ccc(Cl)cc2)c1C	.	-3	17%	3.2	-1.6	i	5	11	0.9
COc1ccc(NC(=O)Nc2ccc3c(c2)C(=O)N([C@@H](C)CO)C[C@H](C)[C@@H](CN(C)S(=O)(=O)c2ccc(F)cc2)OCCCC[C@@H](C)O3)cc1	.	.	.	3.3	.	i	1	2	1.0
Cc1cc(O)c(C(C)C)cc1N=Cc1cc([N+](=O)[O-])ccc1O	0.67	-5	.	-1.2	2.6	i	-1	0	4.4
Cc1ccc(NS(=O)(=O)c2ccc3c(c2)CC(=O)N3)cc1C	0.77	-4	.	6.8	-1.4	i	1	10	15
C[C@H](CO)N1C[C@H](C)[C@H](CN(C)C(=O)CC2CC2)Oc2cc(-c3cccnc3)ccc2S1(=O)=O	.	.	.	1.0	.	i	-1	3	-6.2
COc1cccc(C(=O)OCC(=O)N2CCc3ccccc3C2)c1OC	0.7	.	.	-6.6	4.3	i	-13	-12	0.7
CC(=O)Oc1cc(O)c2c(c1)OC(c1ccc(OC(C)=O)c(OC(C)=O)c1)C(OC(C)=O)C2=O (centres undefined)	0.62	89*	5%	-2.1	0.2	i	1	-2	5.4
CO[C@@H]1CN(C)C(=O)c2ccc(NS(=O)(=O)c3ccc(F)cc3)cc2OC[C@@H](C)N(C(=O)NC(C)C)C[C@H]1C	.	.	.	-1.4	.	i	-2	-3	0.1
COc1ccc(C(=O)N/C(=C\c2ccc(Cl)cc2)C(=O)NCC2CCCO2)cc1 (centres undefined)	0.73	0	.	-2.0	3.0	i	4	7	-0.7
CC(C)(C)c1ccc(OC(=O)c2ccc3snnc3c2)cc1	0.73	-7	27%	.	-1.3	.	.	.	.
O=C(c1c[nH]c(C(=O)C(Cl)(Cl)Cl)c1)c1ccccc1Cl	0.75	50	2%	.	-1.6	.	.	.	.
